Vif TR-FRET – HIV-1 Vif–A3G interaction blockers – biochemical, TR-FRET, GST-Vif 1-94, biotin-A3G peptide, dose response retest, primary screen (AID 1117319). TR-FRET GST-Vif / biotin-A3G peptide binding; higher % means a stronger effect; test concentration not given here; strong numbers were not always called active. one-dose inhibition, %; IC50 in µM for titrated hits. 0.57% of 260,000 active;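 active = above the screen mean plus three standard deviations and confirmed in dose response; inconclusive = results disagree or hit not tested in dose response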;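 also: Vif residues 1-94 fused to GST binding biotinylated APOBEC3G peptide 110-148; 0% = full assay without inhibitor and 100% = GST in place of GST-Vif; retest series ran down from 100 µM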
UCH37 inh – human UCH37 deubiquitinating enzyme inhibition; purified proteasome/UCH37, Ub-AMC cleavage fluorescence; inhibition, % (test concentration not listed); 0.33% of 330,000 active; AID 588478;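 active = mean of two replicates above 20%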;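 also: 0% = compound-free wells with enzyme and 100% = wells lacking proteasome; stock transfer was 100 nL into about 20 µL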
Target sequence (Q9Y5K5 whole entry, looked up): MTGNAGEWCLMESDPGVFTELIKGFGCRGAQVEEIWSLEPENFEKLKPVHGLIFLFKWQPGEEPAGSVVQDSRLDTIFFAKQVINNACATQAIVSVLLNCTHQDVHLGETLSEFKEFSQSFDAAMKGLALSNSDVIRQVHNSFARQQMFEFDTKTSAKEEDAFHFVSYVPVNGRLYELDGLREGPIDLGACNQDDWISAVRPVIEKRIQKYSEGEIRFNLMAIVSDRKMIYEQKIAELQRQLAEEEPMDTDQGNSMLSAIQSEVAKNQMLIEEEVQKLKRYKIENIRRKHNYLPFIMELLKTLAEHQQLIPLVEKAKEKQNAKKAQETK
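system = Proteasome-associated human UCH37 deubiquitinase | amount = 0.15 nM proteasome as dispensed | medium = pH 7.4 Tris-HCl (50 mM) with ovalbumin, ATP-MgCl2, DTT | incubation = 30 min preincubation with enzyme, 25 min cleavage at room temperature | detection = AMC fluorescence 355/460 nm | read-out basis = percent inhibition | controls = no-proteasome and no-compound wells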
Beta2AR agonist – human beta-2 adrenergic receptor agonism by FAP; Am2.2-beta2AR cells, FAP receptor internalization, flow cytometry; reference of the scale not given here; 0.43% of 340,000 active; AID 504454; response, % (test concentration not listed);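 active = response above a set limit, near 3 SD of response in nonfluorescent compounds, cut at about 42% in these data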;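 also: stock transfer was 100 nL into about 11 µL; a reference agonist was the positive control; negative values mostly stem from fluorescent compounds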
A1 inh – inhibitors of the anti-apoptotic protein A1, read as caspase activation. 0.066% of 330,000 active. caspase activation, % (concentration not given with the values). MEF A1-2A-BIM cells, Caspase-Glo 3/7 luminescence, 3 h; percent of clofoctol response, vehicle zero;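 active = over half of replicate activation scores above 10%, or exactly half above 10 with the replicate mean above 10; inconclusive = replicate mean below 10 yet half the replicates above 10; inactive = over half of replicates below 10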;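 also: wells of about 30 µL received 50 nL stock; many hits fall short of the cut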
LANA-H2A inh – blocks KSHV LANA binding to histone H2A/H2B | cell-free LANA-H2A/H2B peptide, fluorescence polarization | inhibition, % (test concentration not listed) | 0.6% of 320,000 active; in the data active = inhibition mostly above about 10%, no sharp cut-off; inactive = mostly below about 6.7%;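 also: stock transfer was 7.5 nL into about 10 µL; 0% = median of vehicle wells and 100% = median of positive control wells; one replicate is shown; the record names a cut of 25% in any replicate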
HNF4A DNA FP – change in binding of human HNF4 alpha to DNA; activity change, % at 10 µM; AID 1224865; HNF4a-FITC DNA binding, fluorescence polarization, 1 h; P41235; 0.3% of 360,000 active; in the data active = activity change above about 30%, passing the limit was not always enough;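 also: controls were the assay level and a saturating level of protein; the project sought stronger binding though the title names inhibitors; some compounds called inactive have numbers as strong as hits; positive values seem to mean higher polarization but the record does not say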
Target sequence (P41235 whole entry, looked up): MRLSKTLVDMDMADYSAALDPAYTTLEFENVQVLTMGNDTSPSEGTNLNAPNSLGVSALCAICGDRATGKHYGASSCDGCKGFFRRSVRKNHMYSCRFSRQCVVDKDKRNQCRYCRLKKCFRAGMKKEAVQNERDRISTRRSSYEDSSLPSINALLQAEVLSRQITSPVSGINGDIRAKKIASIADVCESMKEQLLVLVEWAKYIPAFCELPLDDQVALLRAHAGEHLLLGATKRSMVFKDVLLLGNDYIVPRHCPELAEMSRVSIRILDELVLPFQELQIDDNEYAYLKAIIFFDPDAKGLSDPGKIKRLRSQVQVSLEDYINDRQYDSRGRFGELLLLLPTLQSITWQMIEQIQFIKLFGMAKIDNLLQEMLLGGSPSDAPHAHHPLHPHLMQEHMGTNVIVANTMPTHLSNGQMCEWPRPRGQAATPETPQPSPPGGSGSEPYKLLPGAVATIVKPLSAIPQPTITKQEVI
Ecoli growth – blocks Escherichia coli growth. 0.21% of 330,000 active. OD600 absorbance (no concentration beside the values). OD600, 23 h; active compounds read low. AID 1053175;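 active = OD600 absorbance below the run mean of sample wells minus 3.6 SD, in any replicate, cut at about 0.56 in these data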;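 also: stock transfer was 300 nL into about 60 µL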
* hit, by the source's call; u = inconclusive; x = not tested or not shown.

SMILES	Vif TR-FRET	Beta2AR agonist	HNF4A DNA FP	UCH37 inh	Ecoli growth	LANA-H2A inh	A1 inh
COc1ccc(NC(=O)/C(C#N)=C/c2cccnc2)c(OC)c1	0%	4	-5.8	-1.2	0.67	5.5	0.3
CC(C)(C)C(=O)Nc1sc2c(c1C(=O)Nc1ccccn1)CCCC2	x	-6	1.4	-55	0.72	1.5	0.0
CN(C)CC(=O)c1ccc(-c2ccccc2)cc1	7%	6	-1.8	-0.5	0.74	-2.1	-0.3
Cc1cc(C)nc(NS(=O)(=O)c2ccc(-n3cccc3)cc2)n1	8%	-5	-3.4	4.4	0.73	2.9	0.3
CCSc1nnc(NC(=O)CSC2=NCCS2)s1	-3%	-1	2.4	3.7	0.7	0.5	0.1
O=C(Nc1cccnc1)c1ccc(COc2ccccc2Cl)o1	4%	-4	-2.1	2.2	0.63	1.8	1.2
CCCN1CCN(c2nc3c([nH]2)c(=N)ncn3CC(O)CO)CC1 (stereo not drawn)	0%	2	-0.8	-0.5	0.7	1.0	0.0
COc1cc2c(cc1OC)/C(=C/C(=O)c1ccc(NC(C)=O)cc1)NCC2	-1%	7	12	7.3	0.71	2.4	0.9
NS(=O)(=O)c1cccc(NC(=O)CSc2ccccn2)c1	-6%	-2	0.7	3.7	0.67	-2.0	0.2
CC(C)(C)NC(=O)CN(Cc1ccc2c(c1)OCO2)C(=O)CNC(=O)c1cccs1	-5%	x	x	2.7	0.7	1.1	0.0
COCCOC(=O)c1[nH]c2c(c1C)C(=O)CC(c1cccs1)C2 (stereo not drawn)	-6%	15	-0.1	0.6	0.64	x	x
COC(=O)C1Cc2ccccc2CN1C(=O)CCl (stereo not drawn)	9%	8	-6.2	3.0	0.67	-6.8	0.3
CN(C)c1ccc(/C=C(/NC(=O)c2ccccc2)C(=O)NCCCn2ccnc2)cc1	-2%	-16	14	8.3	0.68	-3.2	0.3
Cc1cc(Cl)c(S(=O)(=O)NCCC(=O)O)cc1OCC(N)=O	-8%	-5	-0.1	0.7	0.7	-7.1	-0.3
O=C(CSc1ccc(-c2ccccn2)nn1)Nc1ccccc1	-9%	-1	0.8	-1.5	0.64	-1.0	-0.3
CS(=O)(=O)c1ccc(C(=O)Nc2ccccc2N2CCOCC2)c(Cl)c1	-9%	-3	-4.3	0.0	0.67	1.2	-1.9
CC1CCCN(C(=O)COc2ccc3c(c2)OCO3)C1 (stereo not drawn)	1%	-4	-2.2	-0.1	0.72	-1.0	-0.4
Cn1nnnc1SCC(=O)Nc1nc2c(F)c(F)c(F)cc2s1	-11%	-1	1.7	1.9	0.69	0.6	-2.2
C=C(C)CSc1nc2c(cc1C#N)CCC2	1%	-11	-5.0	0.6	0.69	4.3	1.2
CCCCSc1nc(O)c(C2OC(=O)c3c2ccc(OC)c3OC)c(=O)n1-c1ccccc1 (stereo not drawn)	-2%	5	-3.0	2.3	0.72	-0.9	0.8
COC(C[C@H](O)C[C@@H](O)[C@@H](C)OCc1ccccc1)OC	x	4	1.4	1.2	x	x	x
CCN(C(=O)CN1C(=O)c2ccc([N+](=O)[O-])cc2C1=O)C1CCS(=O)(=O)C1 (stereo not drawn)	2%	-1	1.0	3.3	0.67	3.2	0.4
CCN(CC)S(=O)(=O)c1cc([N+](=O)[O-])ccc1NNC(=O)Nc1ccc(Cl)c(Cl)c1	3%	14	-1.4	6.0	0.7	2.3	1.9
N#Cc1c(C#N)c(SSc2c(C#N)c(C#N)c(N)n2-c2ccccc2)n(-c2ccccc2)c1N	-2%	-4	-0.1	x	x	x	x
CCCCn1c(N)c(N(CC(C)C)C(=O)c2ccc(-c3ccc(Cl)cc3)o2)c(=O)[nH]c1=O	x	2	3.9	-40	0.71	6.0	-1.0
Cc1cc2c(=O)n(C)c(SCC(=O)Nc3ccccc3)nc2s1	x	-6	-0.6	-0.3	0.7	-5.8	-0.8
CCc1cc(=O)oc2cc(C)cc(OCC(=O)NCc3ccncc3)c12	6%	-1	-2.4	-69	0.7	-3.5	-0.2
Cc1nnsc1-c1onc(C)c1C(=O)Nc1cc(Cl)cc(Cl)c1	-6%	-1	-0.4	2.1	0.65	-5.7	0.0
Cc1nc2c(-c3ccc(F)cc3)c(C)nn2c(C)c1CCC(=O)N1CCOCC1	-3%	6	-0.5	1.2	0.72	-1.5	1.8
CC12CCC(=O)N1C(C(=O)NCCc1ccc(F)cc1)CS2 (stereo not drawn)	-8%	2	-0.5	3.9	0.73	0.0	1.0
CC1CC(NC2=NCCS2)CC(C)(C)C1 (stereo not drawn)	-4%	3	1.1	0.5	0.61	-0.2	-0.2
Cc1ccc(S(=O)(=O)Oc2ccccc2)cc1	15%	-6	-0.9	-0.3	0.7	x	x
COc1ccc(-c2cc(C(=O)NCC3CCCO3)on2)cc1OC (stereo not drawn)	x	2	-3.9	1.7	0.68	0.7	-0.9
CC(C(=O)Nc1ccc([N+](=O)[O-])cc1)N1CCN(C/C=C/c2ccccc2)CC1 (stereo not drawn)	x	1	-2.9	4.6	0.61	-5.3	-0.5
O=C(NCCO)c1c(-c2ccc3c(c2)OCO3)noc1-c1ccsc1	-1%	-6	2.5	x	x	x	x
CC(C)c1ccc([N+](=O)[O-])cc1S(=O)(=O)N1CCN(C)CC1	x	-3	0.0	-2.1	0.67	0.4	0.3
CC(NC(=O)Nc1ccc(F)cc1)C(c1cccs1)N1CCCC1 (stereo not drawn)	x	2	-2.5	1.6	0.66	x	0.0
CC1=C(C)C(C)=C(C#N)C(=C(C#N)C#N)N1	10%	6	-0.2	x	x	2.8	0.4
Cn1c(=O)[nH]c(=O)c2c1nc(N1CCN(CCO)CC1)n2Cc1ccccc1	5%	5	-3.6	x	x	2.6	0.9
CC[C@@]1(C(=O)OC)N[C@H](CN(C)C(=O)C2CCCCC2)[C@@H]2C(=O)N(Cc3ccccc3)C(=O)[C@@H]21	0%	2	-1.4	0.7	0.67	x	x
COc1ccc(C(=O)N[C@H](C(=O)OCc2cc(=O)oc3cc(C)ccc23)C(C)C)cc1	x	-8	-0.4	-21	0.7	-0.9	0.1
COc1ccc(CN2CC(C(=O)NCCCN3CCN(C)CC3)CC2=O)cc1 (stereo not drawn)	4%	3	1.8	0.3	0.7	1.4	-0.2
CCC/C(O)=C1\C(=O)CC(C)(C)CC1=NCCO	0%	-1	0.2	0.2	0.7	-3.9	0.1
Cc1ccsc1C(=O)N1CCN(C(=O)c2ccco2)CC1	u	1	2.1	1.7	0.65	3.6	-0.6
CN(C)c1ccc(N/C=C/C(=O)c2ccccc2)cc1	u	2	38*	4.0	0.71	-0.3	-10
Cc1ccc(NC(=O)c2nc3nccc(C)n3n2)cc1S(=O)(=O)N1CCCCC1	x	3	-0.2	1.2	0.66	0.6	-1.1
COc1cc(/C=N/NC(=O)c2ccc(-n3cccc3)cc2)ccc1O	u	9	0.3	x	x	4.8	1.7
COC(=O)C1(C(C[N+](=O)[O-])c2ccc(C)cc2)C(=O)NCC1c1ccco1 (stereo not drawn)	8%	2	2.3	3.9	0.69	-4.5	-0.9
COc1ccc(Cl)cc1NC(=O)C[n+]1cccc(C)c1	-2%	-4	-0.1	5.9	0.68	3.2	0.9
O=[N+]([O-])c1ccn(-c2nc(-c3ccccc3)cc(C(F)(F)F)n2)n1	1%	-5	3.6	1.9	0.66	0.2	-0.2
COc1ccccc1-c1nnn(CC#N)n1	9%	5	0.1	4.8	0.67	4.6	0.9
O=C(O)CCCNS(=O)(=O)c1cccs1	-2%	3	-2.5	-0.8	0.72	-0.6	-0.4
O=C(O)CCC(=O)Nc1ccc(S(=O)(=O)Nc2nccs2)cc1	u	-9	-1.3	5.9	0.68	-6.3	-0.4
COC(=O)COc1cccc2c(=O)n(CC(=O)Nc3ccc4c(c3)OCCO4)ccc12	21%	31	2.1	3.6	0.74	-3.7	0.0
COc1cc(NC(=O)c2cccnc2SC)cc(OC)c1OC	4%	5	-3.5	2.9	0.69	-4.3	-0.1
Nc1ncnc2nc(Sc3ccc(Cl)cc3)[nH]c12	u	-3	-1.1	5.0	0.7	0.1	1.4
COC(C(=O)Nc1ccc(F)cc1F)c1ccccc1 (stereo not drawn)	-2%	2	5.4	-0.9	0.73	0.3	-0.1
COc1ccc(C2=NN3C(=O)c4c(ccc(OC)c4OC)C3C2)cc1 (stereo not drawn)	-1%	1	1.8	-5.7	0.72	38*	0.3
COC(=O)CCC(=O)OC1(C)C(=O)C2=CN(CCc3c[nH]c4ccccc34)C(c3ccc(OC)cc3)=CC2=C(Br)C1=O (stereo not drawn)	x	-3	12	x	x	0.9	0.7
O=C(CN1C(=O)NC2(CCCC2)C1=O)Nc1ccc(F)c(F)c1F	-6%	8	-4.7	2.1	0.71	-5.4	0.2

(further entries)
SMILES	Vif TR-FRET	Beta2AR agonist	HNF4A DNA FP	UCH37 inh	Ecoli growth	LANA-H2A inh	A1 inh
Cc1ccc(Cl)cc1NC(=O)COC(=O)CSc1ccccc1	-4%	0	-5.2	0.8	0.69	5.7	0.6
CC(=O)OC(C(=O)NCc1ccc2c(c1)OCO2)c1ccccc1Cl (stereo not drawn)	0%	-5	1.6	1.3	0.72	-1.2	-0.4
O=[N+]([O-])c1cccc(-c2nnc3ccccn23)c1	1%	x	x	4.8	0.69	-7.4	-0.3
O=C(CCC1CC(=O)Nc2ccccc21)NCc1ccc(F)cc1 (stereo not drawn)	3%	-4	-0.8	-0.1	0.66	2.1	-0.4
O=S(=O)(c1ccc(-c2nnco2)cc1)N1CCCCC1	x	-8	-1.1	1.5	0.66	-0.5	0.3
CS(=O)(=O)Nc1ccccc1C(=O)OCC(=O)N1CCC(c2ccccc2)=N1	23%	-8	-2.7	1.2	0.67	3.6	1.9
COc1ccc(C)cc1NC(=O)C1CC(=O)N(CCc2ccccc2)C1 (stereo not drawn)	x	2	-5.1	1.2	0.69	-1.6	0.4
CCCSC1=C(C#N)C(c2cc(OC)ccc2OC)CC(=O)N1 (stereo not drawn)	4%	-8	-2.6	3.1	0.79	4.3	0.1
COCCN(C(=O)c1ccc2c(c1)S(=O)(=O)N=C1CCCCCN12)c1c(N)n(CC(C)C)c(=O)[nH]c1=O	x	4	1.8	2.5	0.67	x	x
NS(=O)(=O)c1ccc(CCNC(=O)c2ccccc2F)cc1	1%	12	0.6	-1.0	0.71	1.7	1.7
CC(NC(=O)c1cc2cc(Cl)ccc2oc1=N)c1ccccc1 (stereo not drawn)	6%	36	0.3	0.9	0.69	5.4	0.3
COc1ccc(/C=N/Nc2cc(C)nc3ccccc23)cc1	x	27	1.4	x	x	6.0	-0.2
COc1ccc(CNC(=O)C(CC(C)C)NC(=O)c2ccccc2C)cc1 (stereo not drawn)	x	10	-1.2	2.7	0.7	9.7	0.4

3 compounds from above, arranged by the value under Beta2AR agonist, smallest number first.
Compound,Vif TR-FRET,Beta2AR agonist,HNF4A DNA FP,UCH37 inh,Ecoli growth,LANA-H2A inh
C=C(C)CSc1nc2c(cc1C#N)CCC2,1%,-11,-5.0,0.6,0.69,4.3
O=C(CSc1ccc(-c2ccccn2)nn1)Nc1ccccc1,-9%,-1,0.8,-1.5,0.64,-1.0
CCN(CC)S(=O)(=O)c1cc([N+](=O)[O-])ccc1NNC(=O)Nc1ccc(Cl)c(Cl)c1,3%,14,-1.4,6.0,0.7,2.3
